Hsc70: Hsc70 inhibitors, probe displacement, primary screen, biochemical, fluorescence polarization (AID 568); Hsc70 fluorescence polarization, probe displacement; higher % means a stronger effect; strong numbers were not always called active; displacement, % at 20 µM; hits with a dose series show IC50 in µM; 83,000 tested, under 10 active;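 active = displacement above 50% without optical interference and an IC50 on retest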;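 note: ATPase domain with a fluorescein-tagged ATP probe; 0% = vehicle and 100% = excess ADP; read after one hour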
WNV NS2B-NS3 inh: inhibitors of WNV NS2B-NS3 protease, primary screen, biochemical, fluorogenic substrate; Genome polyprotein (West Nile virus), P06935; z-score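 (tested at a level between 10 and 100 µM)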; fluorogenic substrate Ex360/Em465; hits give low values; 65,000 compounds, 0.18% hits;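 active = z-score at -3 or under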;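 note: score is relative to mean and spread of the compound wells of a plate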
Target sequence (P06935 1371-1501 limits assumed): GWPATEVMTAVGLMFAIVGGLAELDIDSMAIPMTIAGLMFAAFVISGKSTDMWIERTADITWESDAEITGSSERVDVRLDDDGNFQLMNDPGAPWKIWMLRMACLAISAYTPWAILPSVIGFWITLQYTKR
Target sequence (P06935 1502-1679 limits assumed): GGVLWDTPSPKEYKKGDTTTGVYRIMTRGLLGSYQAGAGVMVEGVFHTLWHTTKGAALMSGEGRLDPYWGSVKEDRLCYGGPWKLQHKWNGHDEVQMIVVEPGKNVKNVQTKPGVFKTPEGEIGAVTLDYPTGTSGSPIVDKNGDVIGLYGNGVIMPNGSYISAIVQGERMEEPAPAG
MT1-MMP promoter: inhibitors of MT1-MMP promoter transcription, cell-based, luciferase reporter, luminescence (AID 618). MT1-MMP promoter luciferase reporter cells, luminescence. calls from a first round at 10 µM; hits with a dose series show EC50 in µM. 87,000 compounds, 0.62% hits;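 active = over half of the reporter light lost at 10 µM or EC50 under 50 µM; inactive = the rest and hits that failed the dose series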;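 note: actives suppress MT1-MMP promoter-driven transcription so potencies describe inhibitors; HT1080 fibrosarcoma cells; overnight exposure; toxic or luciferase-blocking compounds were not removed from the actives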
Starred values were filed as active, the others as inactive; i = inactive; x = no result given; + = active, no number. No enrichment for hits, and some 0.8% of all compounds hit somewhere here.

Screens in order: Hsc70, WNV NS2B-NS3 inh, MT1-MMP promoter
- O=C(CCCn1c(=O)[nH]c2ccsc2c1=O)N1CCN(Cc2ccc3c(c2)OCO3)CC1
 : -3.6%, x, i
- COC(=O)c1nn(-c2c(C)n(C)n(-c3ccccc3)c2=O)cc1O
 : 4.0%, -0.1, i
- Cc1sc(NC(=O)CSc2nnc(C)c(=O)[nH]2)c(C#N)c1C
 : -5.3%, -0.48, i
- CCOC(=O)c1sc2nc(N3CCOCC3)c3c(c2c1N)CCN(C)C3
 : -7.9%, -0.18, i
- CC(=O)OCC(=O)[C@@]1(OC(C)=O)[C@@H](C)C[C@H]2[C@@H]3C[C@H](F)C4=CC(=O)C=C[C@]4(C)[C@@]3(F)[C@@H](O)C[C@@]21C
 : -5.7%, 0.27, i
- COc1cc(C(=O)NCC(=O)OCC(=O)c2ccc[nH]2)cc(OC)c1OC
 : 5.0%, -1.6, i
- O=C(CSc1nnc(-c2cccs2)o1)OCc1ccccc1
 : -0.2%, 0.09, i
- Cc1c(C(N)=O)sc2ncn(CC(=O)OC(C)C)c(=O)c12
 : -2.2%, x, i
- CCCCOC(=O)Nc1nc2ccc(OC)cc2s1
 : 2.1%, -0.37, i
- O=C(NCc1ccco1)c1cc(-c2cccnc2)nc2ccccc12
 : -5.3%, -2.1, i
- Cc1ccc(Oc2ccc(Oc3ccc(C)cc3)nn2)cc1
 : 5.5%, x, i
- CCOC(=O)c1c(C)[nH]c(C(=O)COC(=O)c2oc3ccccc3c2C)c1C
 : -1.4%, x, i
- CCOC(=O)c1c(C)oc2c1c(C(c1cccnc1)N1CCN(C)CC1)c(O)c1ccccc12 (stereo not given)
 : -6.0%, 0.46, i
- N#CCSc1nc(N)c(C#N)c(C2CCCCC2)c1C#N
 : 1.5%, -1.2, i
- CCc1cc2c3c(c(=O)oc2cc1OC)CCCC3
 : -2.3%, -1.3, i
- NC(=O)C1CCN(C(=O)CN2CCN(c3cccc(C(F)(F)F)c3)CC2)CC1
 : -3.7%, 0.07, i
- CCOCCCNC(=O)C1CCN(C(=O)N(C)C)CC1
 : 7.2%, 0.62, i
- Cc1nc2nc(COc3ccccc3)[nH]n2c(=O)c1C
 : -3.8%, -0.42, i
- Cc1cc2c(cc(C(=O)OCC(=O)NCc3ccco3)n2C)s1
 : -1.8%, x, i
- Cc1ccc2nc(C)c(Cl)c(=O)n2c1
 : 4.6%, x, i

Screens in order: Hsc70, WNV NS2B-NS3 inh, MT1-MMP promoter
- Cc1ccc(-n2cc3ccc([N+](=O)[O-])cc3n2)cc1
 : -3.4%, x, i
- N#CCCn1c(SCC(=O)NCC2CCCO2)nc2ccccc21 (stereo not given)
 : -2.4%, 0.22, i
- COc1ccccc1N1CCN(S(=O)(=O)c2ccc(Br)s2)CC1
 : -8.3%, x, i
- COc1ccc(C2N(S(=O)(=O)c3ccc(C)cc3)CCN2S(=O)(=O)c2ccc(C)cc2)cc1
 : 2.1%, x, i
- Cc1ccc(-n2c(N)c(C(=O)N3CCOCC3)sc2=S)c(C)c1
 : 4.9%, -0.34, i
- O=C(c1cccc(F)c1)N1CCC(N2CCOCC2)CC1
 : -0.9%, x, i
- COc1ccccc1N1C(=O)CC(Nc2ccc(N3CCOCC3)cc2)C1=O (stereo not given)
 : -5.4%, 0.0064, i
- CCn1c(COc2ccccc2C)nnc1SCC(=O)NC1CCCC1
 : -2.4%, -0.0057, i
- Cc1c(C(=O)N2CCN(c3ccccn3)CC2)oc2ccccc12
 : -1.8%, -1.3, i
- COC(=O)CSc1ccc2nnc(-c3ccc(F)cc3)n2n1
 : -8.7%, 0.25, i
- COc1ccc(C(F)(F)F)cc1NC(=O)c1nc2nc(C)cc(C(F)F)n2n1
 : -6.9%, -0.27, i
- CCOC(=O)c1ccc(-c2n[nH]c(=O)c3ccccc23)cc1
 : -5.3%, 0.82, i
- Cc1nc2ccccn2c1C(=O)c1ccccc1
 : -1.1%, -1, i
- COc1ccc(NS(=O)(=O)Cc2ccccc2)cc1OC
 : 0.1%, x, i
- Cc1cc(=O)oc(C)c1C(=O)N1CCCCC1
 : -0.3%, x, i
- c1ccn2cc(CSc3nnc4ccccn34)nc2c1
 : 4.8%, -0.52, i
- c1ccc(N(c2ccccc2)c2nc(-n3ccnc3)nc(-n3ccnc3)n2)cc1
 : 3.7%, 0.5, i
- COc1ccc(C2c3c(-c4cc(Cl)c(C)cc4O)n[nH]c3C(=O)N2Cc2cccnc2)cc1OC (stereo not given)
 : 1.0%, -0.07, i
- Cc1ccc(C)c(NC(=O)Cn2nnc(C(=O)Nc3c(C)cccc3C)c2N)c1
 : 1.8%, 0.46, i
- CNc1ccc(Br)cc(C(=O)/C=C/c2cccc(OC)c2)c1=O
 : 3.0%, x, i

Screens in order: Hsc70, WNV NS2B-NS3 inh, MT1-MMP promoter
- O=C1C=C(c2ccc(Cl)cc2)C(=O)N1Nc1ccccc1
 : 3.1%, x, i
- CC(C)(C)c1ccc(OCC(=O)NCc2ccco2)c(Br)c1
 : -9.9%, -0.75, i
- COC(=O)Nc1ccc(C)cc1NC(=O)OC
 : 2.0%, 0.46, i
- O=C(CN1CCOc2ccccc21)NC1CCCCCCC1
 : 7.1%, -1.7, i
- CN(C)S(=O)(=O)c1cccc(NC(=O)COC(=O)c2ccc(Br)o2)c1
 : 4.6%, x, i
- CCCn1c(=O)c(C(=O)Nc2nnc(CC)s2)c(O)c2ccccc21
 : 6.4%, -0.8, i
- CCOc1ccc(-n2cc(C(=O)NC(C)C)c3cc(OC)c(OC)cc3c2=O)cc1
 : -7.6%, x, i
- O=C1N(CN2C(=O)C3(OCCO3)c3ccccc32)c2ccccc2C12OCCO2
 : -2.0%, 0.64, i
- Cc1c(C(=O)N2CCCCC2)sc(NC(=O)C2CC2)c1C#N
 : -5.1%, -1.5, i
- Cn1c(SCC(=O)N2CCOCC2)nnc1-c1cnccn1
 : 5.0%, 0.05, i
- COC(=O)COc1ccc2oc(=O)cc(C)c2c1
 : 2.8%, 1.2, i
- CC1(C)NC(=O)N(CC(O)CN2CCOCC2)C1=O (stereo not given)
 : -1.1%, -0.47, i
- Cc1ccc2c(c1)nnn2C1CCN(CC(=O)NCCc2ccccc2)CC1
 : -0.4%, -1.4, i
- CC(C)C(C(=O)Nc1ncn[nH]1)N1C(=O)c2ccccc2C1=O (stereo not given)
 : -2.4%, 0.98, i
- CCc1nnc(NC(=O)Cn2ccc(C(F)(F)F)n2)s1
 : -0.7%, 0.35, i
- CC(=O)N1CCc2cc(Br)cc(S(=O)(=O)NCc3ccccn3)c21
 : -4.7%, -0.47, i
- COc1ccc2c(C=Nc3c(C)n(C)n(-c4ccccc4)c3=O)c(O)n(Cc3ccco3)c(=O)c2c1
 : 57%, -1.6, i
- CN1C(=O)Cc2cc(S(=O)(=O)N3CCOCC3)ccc21
 : -4.9%, -0.18, i
- CCOC(=O)C1CCN(C(=O)CCc2nc3ccccc3[nH]2)CC1
 : 2.7%, 0.18, i
- CCCc1nc2c(sc3nc4c(cc32)COC(C)(C)C4)c(=O)n1Cc1ccco1
 : -4.3%, -1, i

Screens in order: Hsc70, WNV NS2B-NS3 inh, MT1-MMP promoter
- COc1ccc2c(CC(=O)Nc3ccc(OC)c(NS(=O)(=O)c4ccc(F)cc4)c3)coc2c1
 : -2.0%, -1.1, i
- CCc1nnc(NC(=O)CSc2nnc(-c3c[nH]c4ccccc34)n2CCOC)s1
 : 2.8%, 0.84, i
- Cc1cc(Nc2ccc3c(c2)OCCO3)n2nc(C)nc2n1
 : 1.0%, 0.34, i
- CCOc1ccccc1NC(=O)CN(c1ccc(C)cc1)S(=O)(=O)c1c(C)n[nH]c1C
 : 2.9%, -0.11, i
- COc1ccc(OC)c(N(CC(=O)Nc2ccccc2)S(C)(=O)=O)c1
 : -1.9%, 0.52, i
- CC(=O)N(CCc1ccccc1C)Cc1cc2cc3c(cc2[nH]c1=O)OCO3
 : 1.1%, -0.01, i
- O=C(CN1CCOCC1)Nc1cccc(Cl)c1Cl
 : -1.0%, -0.1, i
- CC1CN(C(=O)N2c3ccccc3Sc3ccccc32)C(C)CC1=O (stereo not given)
 : -4.8%, -0.37, i
- CCN1CCCC1CNC(=O)c1csc2c1CCCC2 (stereo not given)
 : -4.7%, 1.3, i
- O=C(Nc1nnc(-c2cccs2)o1)c1cccc(Oc2ccccc2)c1
 : 2.1%, 0.53, i
- Nc1cccc(-n2nncc2-c2ccc(Cl)cc2)c1
 : 2.4%, -0.7, i
- Cc1ccccc1S(=O)(=O)Cc1ccc(C(=O)NCCN2CCCCC2C)o1 (stereo not given)
 : -9.1%, -1.2, i
- Cc1nn2c(-c3cccc(NC(=O)CSc4nc5ccccc5o4)c3)nnc2c2ccccc12
 : -12%, -0.72, i
- O=C(c1cnn2c(C(F)(F)F)cc(-c3cccs3)nc12)N1CCN(C(c2ccccc2)c2ccccc2)CC1
 : -2.5%, x, i
- CCSc1nnc2c(n1)OC(C)(C)Nc1ccccc1-2
 : -1.7%, -0.06, i
- CC(=O)N(c1c(C)n(C)n(-c2ccccc2)c1=O)C1(C(=O)NC2CCCC2)CCCCC1
 : 0.3%, -1.3, i
- CCOC(=O)SC1=N/C(=C\c2ccc(N(C)C)cc2)C(=O)S1
 : -109%, -0.46, i
- O=C(NCc1ccccc1Cl)C1CCN(S(=O)(=O)N2CCC3(CC2)OCCO3)CC1
 : 1.0%, 0.15, i
- COc1ccc(N2C(=O)c3ccc(C(=O)OC(C)C)cc3C2=O)cc1
 : -2.6%, x, i
- Cc1cccc(-c2nc(CS(=O)CC(=O)N3CCc4ccccc4C3)c(C)o2)c1 (stereo not given)
 : 4.0%, 1.3, i

Fetched by structure from the entries so far (five):
Screens in order: Hsc70, WNV NS2B-NS3 inh, MT1-MMP promoter
- CCOC(=O)SC1=N/C(=C\c2ccc(N(C)C)cc2)C(=O)S1
 : -109%, -0.46, i
- COc1ccc2c(CC(=O)Nc3ccc(OC)c(NS(=O)(=O)c4ccc(F)cc4)c3)coc2c1
 : -2.0%, -1.1, i
- CCOc1ccccc1NC(=O)CN(c1ccc(C)cc1)S(=O)(=O)c1c(C)n[nH]c1C
 : 2.9%, -0.11, i
- CCN1CCCC1CNC(=O)c1csc2c1CCCC2 (stereo not given)
 : -4.7%, 1.3, i
- Cc1cccc(-c2nc(CS(=O)CC(=O)N3CCc4ccccc4C3)c(C)o2)c1 (stereo not given)
 : 4.0%, 1.3, i

New compounds follow
Screens in order: Hsc70, WNV NS2B-NS3 inh, MT1-MMP promoter
- Cc1ccc(-c2nnn(CC(=O)N(c3ccccc3F)C(C(=O)NC3CCCC3)c3ccco3)n2)o1 (stereo not given)
 : -2.5%, -0.04, i
- COc1ccc(C2=NOC(C(=O)N3CCOCC3)C2)cc1OC (stereo not given)
 : 2.4%, -0.31, i
- CC1(C)Cc2c(C#N)c(NCc3ccco3)nc(-c3ccco3)c2CO1
 : -18%, -0.7, i
- CC1CC(C)CN(C(=O)COc2ccc(-c3nnco3)cc2)C1 (stereo not given)
 : -5.4%, -0.28, i
- CCc1nnc2sc(-c3cc(-c4ccccc4)nc4ccccc34)nn12
 : -4.0%, -0.61, i
- CCn1c(NCc2ccccc2Cl)nc2ccccc21
 : -2.6%, x, i
- COc1ccc(S(=O)(=O)N2Cc3ccccc3CC2C(=O)O)cc1OC (stereo not given)
 : -2.2%, 0.48, i
- CCC(=O)Oc1ccc(/C(CC)=C(\CC)c2ccc(OC(=O)CC)cc2)cc1
 : 2.0%, 0.4, i
- COc1ccc(N(CC(=O)NCC2CCCO2)S(=O)(=O)c2ccc(C)cc2)cc1OC (stereo not given)
 : 5.0%, x, i
- c1ccc(-n2c(-c3ccco3)nnc2N2CCOCC2)cc1
 : -10%, 2, i
- CCC(C(=O)NCc1ccc(OC)cc1)n1nc(C)n2c(cc3occc32)c1=O (stereo not given)
 : 7.5%, x, i
- Cn1cnc2c(N3CCCCC3)nccc21
 : 3.1%, -0.31, i
- CC(C1CC2CCC1C2)n1c(COc2ccccc2F)nnc1SCC(N)=O (stereo not given)
 : -3.2%, x, i
- C/C(NC(=O)c1cccc(F)c1)=C1/C(=O)C[C@@H]2[C@H]1C2(C)C
 : 3.0%, x, i
- CCOC(=O)c1c(N)sc(C(=O)Nc2ccc3c(c2)OCO3)c1C
 : -2.3%, 0.04, +
- Cc1nc2ccccn2c1/C(O)=C1\C(=O)C(=O)N(CCCN(C)C)C1c1ccc(F)cc1 (stereo not given)
 : 8.6%, 0.29, i
- COc1cccc(NC(=O)[C@@H]2CCCN2C(=O)C2CCN(S(=O)(=O)c3ccc(C)cc3)CC2)c1
 : -4.6%, 1.2, i
- N#CCCCCN1c2cccc3cccc(c23)S1(=O)=O
 : -7.3%, -1.1, i
- O=C(O)Cc1ccc(C(=O)c2ccc(F)cc2)s1
 : 1.8%, x, i
- COc1ccc(-c2cc(-c3ccc(OC)cc3)c(C#N)c(SC)n2)cc1
 : -7.6%, x, i

Screens in order: Hsc70, WNV NS2B-NS3 inh, MT1-MMP promoter
- CC(C)C(=O)Nc1ccc2c(c1)oc1ccccc12
 : 0.7%, x, i
- C=CCn1c(SCC#N)nc2ccccc2c1=O
 : 1.9%, 1.3, i
- Cc1oc2cc3oc(=O)c4c(c3cc2c1C)CCC4
 : 0.9%, -0.69, i
- O=C(c1ccc(Cn2cc(Cl)cn2)o1)N1CCN(Cc2ccc3c(c2)OCO3)CC1
 : 3.6%, -1.6, i
- CC1(C)NC(=O)N(CN2C(=O)NC(C)(C)C2=O)C1=O
 : 6.2%, 0.02, i
- COc1ccc(OCC(O)CNCc2ccco2)cc1 (stereo not given)
 : -7.4%, 0.89, i
- COC(=O)NCc1cc2cc(Cl)ccc2[nH]1
 : 6.0%, -0.88, i

Screening results as filed in PubChem.
